Rango complex inh: Rango-importin beta binding inhibition | Potency, µM (top dose mostly 92.2 µM), for inactives: at the top dose inhibition of complex formation | Q14974 | 0.031% of 340,000 active | Rango CFP/YFP FRET sensor + importin beta, 45 min; active = rising FRET ratio curve, often small or poorly fitted; inconclusive = mostly compound fluorescence or quenching in the first reads; inactive = flat curves in all reads;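 also: potency is read from the fitted curve at half-maximal effect; 0% = DMSO wells and 100% = buffer wells lacking importin beta; nearly all actives have a fitted effect of over 15% in size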
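FRET biosensor (snurportin 1 IBB flanked by EYFP and cerulean), 50 nM, with compound 5 min, then 0.125 microM importin beta in PBS, 1 mM DTT, 0.02% Tween-20, 0.1% BSA. CFP/YFP ratio read after 45 min at room temperature; pre-read flags interference.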
miR-21 FLuc: miR-21 reporter, rising signal; HeLa miR-21 FLuc reporter, luciferase, 48 h; Potency, µM (series often up to 38.3 µM), inactives show top-dose reporter change, positive = more light; 340,000 tested, under 10 active; AID 2288; active = well fitted rising curve with a large enough effect; inconclusive = small, poorly fitted or top-dose-only effect; inactive = no such curve, though single readings can be large or run the other way;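 also: % of control where 0% means no effect; miR-21 action dims this reporter so a rising signal means less miR-21 action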
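Luminescence from a firefly luciferase reporter carrying a miR-21 binding site downstream, stably expressed under a CMV promoter in HeLa cells that make miR-21 endogenously, reports miRNA modulation after 48 h compound exposure up to approximately 40uM final.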
Rango release inh: inhibitors of RanGTP-induced Rango-importin beta complex dissociation; O95149+P62826; Biochemical FRET Rango-importin beta, RanGTP-induced dissociation; Potency, µM (titrated, usually from 46.1 µM), inactives show at the top dose activity change, negative = inhibition; 0.071% of 340,000 active; AID 540253; active means falling FRET ratio curve, often poorly fitted, with flat reads before Ran was added; inconclusive means other falling curves, or compound fluorescence or quenching; inactive means flat or rising ratio curve;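 also: potency is read from the fitted curve at half-maximal effect; % of control where 0% means no effect; nearly all actives have a fitted effect of over 45% in size; -100% = wells without RanGTP and RCC1; the record marks most hits as doubtful in a second field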
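Compounds preincubate 5 min with complex of recombinant Rango and importin beta in PBS with 1 mM DTT. Ran (0.6 uM) loaded with 2 mM GTP plus 0.2 uM RCC1 starts dissociation; FRET is recorded 45 min later.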
GLA inh pH 4.5: alpha-galactosidase A (human) inhibition, pH 4.5. P06280. purified enzyme, 4-MU-alpha-Gal fluorescence, pH 4.5. activity change, negative = inhibition, % at 105 µM. 230,000 tested, under 10 active. AID 1467; inconclusive = small, poorly fitted or top-dose-only inhibition, or a rising curve; inactive = flat fitted curve, though single readings scatter; no compound was filed as active;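 also: 0% = full activity with enzyme and -100% = basal without enzyme; dose as in the result columns while the protocol names 77 µM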
Target sequence (P06280 whole entry, looked up): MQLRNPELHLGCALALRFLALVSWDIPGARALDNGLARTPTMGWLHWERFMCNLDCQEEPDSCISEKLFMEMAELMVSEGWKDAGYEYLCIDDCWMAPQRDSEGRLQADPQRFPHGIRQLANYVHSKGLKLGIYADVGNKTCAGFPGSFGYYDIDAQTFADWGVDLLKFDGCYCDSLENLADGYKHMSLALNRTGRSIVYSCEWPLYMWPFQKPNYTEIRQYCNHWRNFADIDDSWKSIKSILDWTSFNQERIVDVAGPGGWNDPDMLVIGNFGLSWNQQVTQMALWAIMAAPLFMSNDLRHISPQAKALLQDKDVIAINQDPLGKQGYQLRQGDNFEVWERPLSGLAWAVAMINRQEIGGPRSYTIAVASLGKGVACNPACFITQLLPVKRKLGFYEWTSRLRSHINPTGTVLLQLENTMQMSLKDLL
The depositor's hits bear a star; & = joins results of further samples. A portion of the library. The share of hits here may be higher or lower than overall.

CC(C)(C)c1ccc(S(=O)(=O)N2CCN(CC(=O)NC(=O)NC3CCCCC3)CC2)cc1 was read as Rango complex inh -1.2% and Rango release inh -7%.
Screening O=C(CCCOc1ccc(Cl)cc1Cl)Nc1ccccn1 returned Rango complex inh -1.9%, miR-21 FLuc -65%, Rango release inh -3% and GLA inh pH 4.5 9.
Screening COc1ccc2nc(NC(=O)C3CSC4(C)CCC(=O)N34)sc2c1 (stereo not given) returned Rango complex inh -2.0% and Rango release inh 17%.
For COc1ccc(OC)c(CCNC(=O)CS(=O)(=O)Cc2nc(-c3ccccc3C)oc2C)c1 the results were Rango complex inh -0.3%, miR-21 FLuc -1%, Rango release inh -11% and GLA inh pH 4.5 -1.
For O=C(Nc1nnc(-c2ccco2)o1)c1cccc(Cl)c1 the results were Rango complex inh -0.2%, miR-21 FLuc 21%, Rango release inh -2% and GLA inh pH 4.5 -3.
`CCOC(=O)c1nnsc1C(OC)Oc1ccccc1` (stereo not given) gave Rango complex inh 1.0% and Rango release inh 1%.
For Cn1c(=O)c2c(ncn2CC(=O)Nc2nnc(Cc3ccccc3)s2)n(C)c1=O the results were Rango complex inh -0.3%, miR-21 FLuc -1%, Rango release inh -16% and GLA inh pH 4.5 -7.
`C=CC[C@@H](CC(=O)N[C@H](CO)Cc1ccccc1)C(=O)NCCOC(=O)[C@@H](CC=C)Cc1ccc(F)cc1` gave Rango complex inh 0.8% and Rango release inh 3%.
Screening CC1(C)C2CCC1(CS(=O)(=O)N1CCC(C(=O)O)CC1)C(=O)C2 (stereo not given) returned Rango complex inh 1.3%, miR-21 FLuc 3%, Rango release inh 23% and GLA inh pH 4.5 -2.
Cc1nc2scc(C)n2c(=O)c1S(=O)(=O)Nc1ccc(OC(F)(F)F)cc1 was read as Rango complex inh -2.1%, miR-21 FLuc 0% and Rango release inh -14%.
Cc1cc(C(=O)COC(=O)c2ccc(Cl)c(S(N)(=O)=O)c2)c(C)n1C1CC1 was read as Rango complex inh 4.1% and Rango release inh -5%.
COc1ccc([N+](=O)[O-])cc1COc1cc(C)cc2oc(=O)cc(-c3ccccc3)c12 was read as Rango complex inh 4.1%, miR-21 FLuc 0%, Rango release inh 5% and GLA inh pH 4.5 2.
Screening CC1(C)c2ssc(=S)c2-c2ccccc2N1C(=O)CSC1=NCCS1 returned Rango complex inh 1.0%, miR-21 FLuc 9%, Rango release inh 19% and GLA inh pH 4.5 -2.
Screening Cc1ncoc1C(=O)N1CCCC(C(=O)Nc2cccc(-c3ccc(F)cc3)c2)C1 (stereo not given) returned Rango complex inh -4.0%, miR-21 FLuc 10% and Rango release inh -6%.
Screening Cc1ccc(NC(=O)CCC(=O)NNC(=O)COc2ccccc2)c(C)c1 returned Rango complex inh -2.3%, miR-21 FLuc -5%, Rango release inh 8% and GLA inh pH 4.5 2.
`c1ccc(-c2cc(N3CCOCC3)nc3ccccc23)cc1` gave Rango complex inh -0.4%, miR-21 FLuc -16%, Rango release inh -12% and GLA inh pH 4.5 -17.
`CCOC(=O)c1c(-c2ccccc2)nc2cc(C)ccn12` gave Rango complex inh 3.8%, miR-21 FLuc -49%, Rango release inh 16% and GLA inh pH 4.5 -1.
`COc1ccc(-c2nc(CSCC(=O)NCCC3=CCCCC3)c(C)o2)cc1OC` gave Rango complex inh -2.7%, miR-21 FLuc -9%, Rango release inh -7% and GLA inh pH 4.5 1.
Screening CCN1CCN(C(=O)c2ccc3c(Cl)c4c(nc3c2)CCCC4)CC1 returned Rango complex inh -0.2%, miR-21 FLuc -1% and Rango release inh -5%.
Screening CC1CCN(C(=S)Nc2cccc(S(=O)(=O)N(C)C)c2)CC1 returned Rango complex inh 0.2%, miR-21 FLuc -10%, Rango release inh -6% and GLA inh pH 4.5 4.
For COc1ccc(C(CC(=O)NC(C)(C)C)n2cccc2)cc1 (stereo not given) the results were Rango complex inh -0.8%, miR-21 FLuc -1%, Rango release inh -16% and GLA inh pH 4.5 3.
Screening CCC/C=C1/CCCOC(C(=O)NCCN2CCOCC2)(C(F)(F)F)C1 (stereo not given) returned Rango complex inh 0.1% and Rango release inh 1%.
`CCCCn1c(N)c(N(CCOC)C(=O)COc2ccc(Cl)cc2)c(=O)[nH]c1=O` gave Rango complex inh -0.5%, miR-21 FLuc 3%, Rango release inh -16% and GLA inh pH 4.5 10.
For CCC(C)c1ccc(O)c(NC(=O)c2cccnc2)c1 (stereo not given) the results were Rango complex inh -0.5%, miR-21 FLuc 4%, Rango release inh -8% and GLA inh pH 4.5 4.
For Cc1ccc2nc(NCCCO)[nH]c2c1 the results were Rango complex inh 0.7% and Rango release inh -22%.
`COc1ccc(C(=O)Nc2cccc(C(C)=O)c2)cc1OC` gave Rango complex inh 14%, miR-21 FLuc -35%, Rango release inh 11% and GLA inh pH 4.5 -2.
COc1ccc(-c2ccc(CCC(=O)O)n2NC(=O)c2cccs2)cc1 was read as Rango complex inh inconclusive, miR-21 FLuc -24%, Rango release inh -10% and GLA inh pH 4.5 -2.
`Cc1oc(-c2cccc(Cl)c2)nc1CN(C)C1CCOC1` (stereo not given) gave Rango complex inh 2.9%, miR-21 FLuc 2%, Rango release inh -2% and GLA inh pH 4.5 3.
`COC(=O)C(CC(C)C)NC(=O)C(Cc1ccccc1)NC(=O)C1CCCN1C(=O)OC(C)(C)C` (stereo not given) gave Rango complex inh 0.2%, miR-21 FLuc -2%, Rango release inh 7% and GLA inh pH 4.5 7.
For Cc1cccc(CSCCNC(=O)Nc2ccccc2)c1 the results were Rango complex inh -2.0%, miR-21 FLuc -4%, Rango release inh 8% and GLA inh pH 4.5 -8.
Cc1ccccc1NC(=O)CCC(=O)OCC(=O)c1cccc([N+](=O)[O-])c1 was read as Rango complex inh -0.4%, miR-21 FLuc 3%, Rango release inh -4% and GLA inh pH 4.5 9.
COCCN(CCOC)S(=O)(=O)c1ccc(C(=O)Nc2nc(-c3ccccc3)c(C(=O)c3ccccc3)s2)cc1 was read as Rango complex inh inconclusive, miR-21 FLuc 18%, Rango release inh inconclusive and GLA inh pH 4.5 -15.
Screening CN1CCc2c(sc(N)c2C(N)=O)C1 returned Rango complex inh inconclusive, miR-21 FLuc 1%, Rango release inh inconclusive and GLA inh pH 4.5 7.
`CCN1C(=O)[C@@H]2[C@@H](c3ccc(-c4ccc(Cl)c(Cl)c4)c(OC)c3)N3CCC[C@@]3(C(=O)OC)[C@@H]2C1=O` gave Rango complex inh inconclusive and Rango release inh -17%.
COC(=O)c1cn(CC(=O)NCc2cccs2)c2ccccc12 was read as Rango complex inh -3.5%, miR-21 FLuc -30%, Rango release inh 15% and GLA inh pH 4.5 -3.
For Cc1ccc(-c2c(C(=O)N/N=C/c3ccoc3)nnn2-c2nonc2N)cc1 the results were Rango complex inh 3.6%, miR-21 FLuc -4% and Rango release inh 31%.
Screening CSc1nc(-c2ccco2)nn1C(=O)c1ccc(Cl)cc1 returned miR-21 FLuc -1% and GLA inh pH 4.5 -6.
COc1cc(C2NC(=O)CS2)cc(OC)c1OC (stereo not given) was read as Rango complex inh -1.2%, miR-21 FLuc 3%, Rango release inh 12% and GLA inh pH 4.5 -1.
For Cc1cc(=O)n2[nH]c(-c3ccc(C(C)(C)C)cc3)cc2n1 the results were Rango complex inh -3.0%, miR-21 FLuc -21%&-21%, Rango release inh 9% and GLA inh pH 4.5 1&8.
Screening Oc1ccc(Cl)cc1C1=Nc2ccccc2N=C(c2ccco2)C1 returned Rango complex inh 12%, miR-21 FLuc -10%, Rango release inh -1% and GLA inh pH 4.5 3.
Cc1cc(C)c(S(=O)(=O)N2CCN(CCO)CC2)c(C)c1 was read as Rango complex inh -6.2%, miR-21 FLuc 1%, Rango release inh 3% and GLA inh pH 4.5 -6.
For Cc1[nH]nc2c1/C(=N/O)CC(c1ccccc1)C2 (stereo not given) the results were Rango complex inh -1.2%, miR-21 FLuc -17%, Rango release inh -2% and GLA inh pH 4.5 -3.
For CCn1c(=O)c2cc(C(=O)Nc3cc(C)on3)sc2c2ccccc21 the results were Rango complex inh inconclusive, miR-21 FLuc 0%, Rango release inh 4% and GLA inh pH 4.5 -5.
For CCN(CC(=O)Nc1ccc2c(c1)OCCO2)S(=O)(=O)c1ccc(C)cc1 the results were Rango complex inh 0.2%, miR-21 FLuc -1%, Rango release inh 10% and GLA inh pH 4.5 3.
For Cc1ccc(S(=O)(=O)N(CC(=O)NCCSCc2ccco2)c2ccc(F)cc2)cc1 the results were miR-21 FLuc 9% and GLA inh pH 4.5 -6.
`Cc1cc(C(F)(F)F)nc(SCC(=O)Nc2c(C)n(C)n(-c3ccccc3)c2=O)n1` gave Rango complex inh -1.2%, miR-21 FLuc -3% and Rango release inh -21%.
Screening O=C(CCNS(=O)(=O)c1ccccc1F)N1CCN(C(c2ccccc2)c2ccccc2)CC1 returned Rango complex inh -1.2% and Rango release inh 20%.
For CN1CCSc2ccc(C(=O)NCc3cccc(F)c3)cc21 the results were Rango complex inh -1.3%, miR-21 FLuc -17% and Rango release inh -4%.

Reprinted from the part before: four compounds, then new ones.
For Cc1ccc(S(=O)(=O)N(CC(=O)NCCSCc2ccco2)c2ccc(F)cc2)cc1 the results were miR-21 FLuc 9% and GLA inh pH 4.5 -6.
`Cc1cc(C(F)(F)F)nc(SCC(=O)Nc2c(C)n(C)n(-c3ccccc3)c2=O)n1` gave Rango complex inh -1.2%, miR-21 FLuc -3% and Rango release inh -21%.
Screening O=C(CCNS(=O)(=O)c1ccccc1F)N1CCN(C(c2ccccc2)c2ccccc2)CC1 returned Rango complex inh -1.2% and Rango release inh 20%.
For CN1CCSc2ccc(C(=O)NCc3cccc(F)c3)cc21 the results were Rango complex inh -1.3%, miR-21 FLuc -17% and Rango release inh -4%.
For O=C(N/N=C/c1cc(Cl)cc([N+](=O)[O-])c1O)C1CC1 the results were Rango complex inh inconclusive, miR-21 FLuc -2%, Rango release inh 5% and GLA inh pH 4.5 0.
COc1ccccc1NC(=O)N(Cc1ccccc1)c1ccccn1 was read as Rango complex inh 1.6%, miR-21 FLuc -18%, Rango release inh 0% and GLA inh pH 4.5 1.
O=C(O)c1ccccc1C(=O)NNC(=O)C(c1ccccc1)c1ccccc1 was read as Rango complex inh -0.1%, miR-21 FLuc -3% and Rango release inh 4%.
`Cc1cc(C)nc(/N=C(\N)Nc2ccc(C)c([N+](=O)[O-])c2)n1` gave Rango complex inh -1.8%, miR-21 FLuc -3%, Rango release inh 0% and GLA inh pH 4.5 -1.
Cc1cc(/C=C2/SC(=O)NC2=O)c(C)n1-c1ccc(N2CCOCC2)cc1 was read as Rango complex inh -2.1%, miR-21 FLuc -21%, Rango release inh -9% and GLA inh pH 4.5 -4.
Screening O=C(COC(=O)CNS(=O)(=O)/C=C/c1ccccc1)Nc1cccc2ccccc12 returned Rango complex inh 1.4%, miR-21 FLuc -3%, Rango release inh 2% and GLA inh pH 4.5 16.
For Cc1nc2ccc([N+](=O)[O-])cc2nc1C the results were Rango complex inh -3.6%, miR-21 FLuc -1%, Rango release inh -4% and GLA inh pH 4.5 -1.
`CCCCN(C)Cc1c(C)[nH]c2c(ccc3ccccc32)c1=O` gave Rango complex inh 1.2%, miR-21 FLuc -6% and Rango release inh -7%.
Screening O=c1ccc(NS(=O)(=O)c2ccccc2Cl)cn1Cc1ccc(Cl)c(Cl)c1 returned Rango complex inh inconclusive, miR-21 FLuc -3%, Rango release inh inconclusive and GLA inh pH 4.5 -7.
`CCOC(=O)C1CCN(C(=O)COC(=O)COc2ccc(Cl)cc2)CC1` gave Rango complex inh -1.6%, miR-21 FLuc 1%, Rango release inh 4% and GLA inh pH 4.5 -4.
Screening CN=C1S/C(=C\c2cn(CC(=O)OC)c3ccccc23)C(=O)N1C returned Rango complex inh -2.8%, miR-21 FLuc -14%, Rango release inh 0% and GLA inh pH 4.5 -14.
Cc1ccc(S(=O)(=O)CC(=O)Nc2sc(C)c(C)c2C(N)=O)cc1 was read as Rango complex inh -2.9% and Rango release inh -8%.
`O=S(=O)(Nc1ccc2c(c1)OCO2)c1cccc(Br)c1` gave Rango complex inh -0.7% and Rango release inh 0%.
`O=C(O)/C=C/c1nc(-c2ccccc2)n2ccccc12` gave Rango complex inh inconclusive, miR-21 FLuc 9%, Rango release inh inconclusive and GLA inh pH 4.5 5.

Screens: PubChem, National Center for Advancing Translational Sciences (NCATS)
